gsp antagonist: qHTS for Antagonists of gsp, the Etiologic Mutation Responsible for Fibrous Dysplasia/McCune-Albright Syndrome: qHTS; gsp-mutant cells, cAMP HTRF, 30 min; control for the full effect not named in the record; Potency, µM (doses to about 76.9 µM), for inactives: at the top dose activity change, negative = inhibition, actives largely listed as inhibitors; 340,000 tested, 0.4% active; active = falling curve of any shape with a large fitted effect; inconclusive = falling curve, mostly with a smaller effect; inactive = flat or rising curve; cell line not stated here;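 note: intracellular cAMP measured with PDE inhibitor Ro 20-1724 present during compound exposure; potency is the fitted concentration of half-maximal effect; % is set by controls: 0 for no effect and ±100 for the full control effect; nearly all actives have a fitted effect of over 65% in size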
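HTRF cAMP read-out (cAMP-d2 plus anti-cAMP antibody-K in lysis buffer, 30 min RT). Before lysis, cells are exposed to compounds with […] for 30 min at 37C in DPBS containing Ca/Mg, BSA and Tween 20.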
TRPV1 potentiator: HTS Assay for Compounds that Act as Potentiators of the Vanilloid Receptor 1. Transient receptor potential cation channel subfamily V member 1 (Homo sapiens), Q8NER1. TRPV1-expressing cells, Fluo-8 calcium influx, capsaicin EC20 potentiation; host cell line not named in the record; control for the full effect not named in the record. potentiation, % at 8.33 µM. 320,000 tested, 0.02% active. AID 540277, 2011; active means potentiation above 80%; inconclusive means 30% to 80%; inactive means below 30%; note: 0% is about no effect
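Fluo-8 calcium influx in TRPV1-expressing cells, kinetic read (ex 480/em 520 nm). Compound added and read 3 min for agonist activity, followed by capsaicin at EC20 final and 2 min further read for enhancement.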
gsp ag: qHTS for Agonist of gsp, the Etiologic Mutation Responsible for Fibrous Dysplasia/McCune-Albright Syndrome: qHTS; 340,000 tested, 0.13% active; Potency, µM (titrated, usually from 76.9 µM), for inactives: top-dose activation (cAMP increase), usual class: activators; gsp mutant cells, cAMP HTRF, 30 min; control for the full effect not named in the record; active = well fitted activation curve with a large enough effect; inconclusive = small, poorly fitted or top-dose-only effect, or another doubt; inactive = no such curve, though single readings can be large or run the other way; cell line not stated here;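 note: phosphodiesterase inhibitor Ro 20-1724 added with compounds to block cAMP breakdown; potency is the fitted concentration of half-maximal effect; nearly all actives have a fitted effect of over 60% in size; about a fifth of the inactives were tested at one dose only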
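Cells in DMEM/10% FBS with G418 were pretreated with compounds in DMSO plus […] (300 uM stock) for 30 min at 37C. cAMP was measured by HTRF (cAMP-d2 plus anti-cAMP antibody-K) after 30 min at room temperature.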
D2 potentiator: Beta-Arrestin HTS for Positive Allosteric Modulators of the Human D2 Dopamine Receptor: Potentiators. potentiation, % (test concentration not listed). D(2) dopamine receptor (Homo sapiens), P14416. 360,000 tested, 0.23% active. DiscoveRx D2 beta-arrestin cells, luminescence, 90 min; 100% = 57 uM dopamine signal; active = potentiation of 50% or more; inconclusive = 30% to 50%; inactive = 30% or less;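 note: compound concentration not given in the record; tested on top of an EC20 dose of dopamine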
Target sequence (P14416 whole entry, looked up): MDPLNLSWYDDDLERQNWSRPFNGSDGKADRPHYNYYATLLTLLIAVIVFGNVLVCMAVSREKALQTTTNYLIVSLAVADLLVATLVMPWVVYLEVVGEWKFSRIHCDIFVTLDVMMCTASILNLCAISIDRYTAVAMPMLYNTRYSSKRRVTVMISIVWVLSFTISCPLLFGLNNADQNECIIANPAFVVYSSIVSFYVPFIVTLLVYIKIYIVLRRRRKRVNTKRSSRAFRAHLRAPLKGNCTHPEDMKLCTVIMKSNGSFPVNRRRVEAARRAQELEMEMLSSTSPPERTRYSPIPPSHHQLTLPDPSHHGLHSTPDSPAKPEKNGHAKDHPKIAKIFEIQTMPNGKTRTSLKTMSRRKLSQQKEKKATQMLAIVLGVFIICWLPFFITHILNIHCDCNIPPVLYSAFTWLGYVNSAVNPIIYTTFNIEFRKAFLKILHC
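PathHunter beta-arrestin assay in DiscoveRx D2 cells. Compounds were added with an EC20 of dopamine (50 nM final) for 90 min at 37 deg C. Luminescence was read 1 h after detection reagent, with 57 uM dopamine as the EC100 control.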
ClpP mod: qHTS Assay for Activators of ClpP; ATP-dependent Clp protease proteolytic subunit (Bacillus subtilis (strain 168)), P80244; purified B. subtilis ClpP, FRET peptide cleavage, 20 min; Potency, µM (series often up to 57.5 µM), without a hit: at the top dose activity change, negative = active; 340,000 tested, 1.9% active; active = well fitted falling curve with a large enough effect; inconclusive = small, poorly fitted or top-dose-only effect; inactive = no such curve, though single readings can be large or run the other way; note: potency is the fitted concentration of half-maximal effect; the source files actives as falling curves though it sought activators and does not explain the sign; nearly all actives have a fitted effect of over 65% in size; many hits overshoot -100%
Target sequence (P80244 whole entry, looked up): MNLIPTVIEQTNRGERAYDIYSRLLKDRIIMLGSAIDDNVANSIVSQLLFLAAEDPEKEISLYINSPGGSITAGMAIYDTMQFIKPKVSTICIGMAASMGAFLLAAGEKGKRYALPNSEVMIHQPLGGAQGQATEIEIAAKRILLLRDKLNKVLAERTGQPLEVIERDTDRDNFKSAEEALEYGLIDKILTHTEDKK
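Purified B. subtilis ClpP, 10 microg/mL final in Tris/HCl pH8 with KCl, BSA, glycerol and Tween-20, cleaved an Abz/nitrotyrosine-quenched decapeptide. Fluorescence (ex 320, em 430) was read at 0 and 20 min at room temperature. Delta was normalized to 5.8 microM ADEP and DMSO/no-enzyme controls.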
Menin MLL FP FL: qHTS Assay for Inhibitors Targeting the Menin-MLL Interaction in MLL Related Leukemias: Competition With Fluorescein Labeled MLL-derived Peptide; Fluorescence polarization, fluorescein-MLL peptide displacement from menin; FP activity change, % at 61.4 µM; 290,000 tested, under 10 active; inconclusive = falling polarisation curve, or a change in total fluorescence; inactive = total fluorescence flat and polarisation flat or rising; no compound was filed as active; the % refers to the polarisation; negative = inhibition;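 note: % of control where 0% means no effect; inhibitors lower the polarisation; unlabelled MLL peptide was the positive control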
Sfp PPTase inh: qHTS Assay for Inhibitors of Bacillus subtilis Sfp phosphopantetheinyl transferase (PPTase); AID 1490, 2009; 310,000 tested, 3.5% active; Biochemical Sfp PPTase activity, qHTS; Potency, µM, for inactives: max response, negative = inhibition, actives largely listed as inhibitors; active = well fitted inhibition curve with a large enough effect; inconclusive = small, poorly fitted or top-dose-only effect, or another doubt; inactive = no such curve, though single readings can be large or run the other way;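 note: the enzyme is Sfp with the accession as filed and its product quenches rhodamine fluorescence; potency is the fitted concentration of half-maximal effect; 0% = enzyme reaction without inhibitor and -100% = no enzyme wells; top concentration of the series not given in the record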
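Buffer: 50 mM Hepes-Na pH 7.6, 10 mM MgCl2, 0.01% Nonidet P-40, 0.01% BSA. Enzyme 15 nM, pre-exposed to compound 15 min; substrates then added and fluorescence change tracked over 30 min.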
The depositor's hits bear a star; ? = inconclusive; / = not tested or not shown; [ ] = another dose, or the depositor's remark.

SMILES	gsp antagonist	TRPV1 potentiator	gsp ag	D2 potentiator	ClpP mod	Menin MLL FP FL	Sfp PPTase inh
CC(=Nc1ccccc1)Nc1ccccc1	20%	4	5%	-7	-0.1%	-3.1	5%
c1ccc(-c2nnc(Cn3c4ccccc4c4nc5ccccc5nc43)o2)cc1	2%	/	6%	12	5.5%	/	/
CCCCn1c(N)c(N(CC)C(=O)CCNC(=O)NC23CC4CC(CC(C4)C2)C3)c(=O)[nH]c1=O	-9%	-6	7%	-9	-3.4%	-5.9	-5%
COc1cccc(NC(=O)CN(C)C(=O)C23CC4CC(CC(Cl)(C4)C2)C3)c1	1%	-12	-7%	-2	-0.7%	/	/
CCOC(=O)C(NC(=O)c1ccc(OC)cc1)(N1CCCC1=O)C(F)(F)F (stereo not given)	10%	-15	?	-14	-0.2%	2.8	10%
O=C(Cc1ccccc1)NNc1ccc2ccccc2c1	-4%	13	-15%	-11	-27%	5.1	17%
CSc1nnc(N2C(=O)C(O)=C(C(=O)c3ccc(C)o3)C2c2ccc(C)cc2)s1 (stereo not given)	-3%	-9	?	-4	-2.0%	/	16µM*
O=C(OCc1nc2ccsc2c(=O)[nH]1)c1cc(Br)c(Br)s1	-5%	-12	3%[15.4 µM]	-6	/	/	/
Fc1ccc(CSc2ncnc3scc(-c4ccccc4)c23)cc1	7%	-6	10%	-35	-9.4%	3.0	?
Cc1csc(NC(=O)c2cncc(Br)c2)n1	-3%	8	?	-4	0.9%	6.2	-9%
CCCCC(O)(CCCC)C(=O)N/N=C(\C)c1ccc(Cl)cc1	0%	-14	11%[15.4 µM]	-14	/	1.7	3%
O=C(CCCC(=O)c1ccccc1)Nc1ccc(O)cc1	-3%	-4	15%	-6	-3.7%	8.3	6%
Cc1ccc(S(=O)(=O)N2CCN(C(=O)CCc3c[nH]c4ccccc34)CC2)cc1	-13%	8	31%	-1	2.8%	/	/
Cc1cc(C)n(CC(=O)n2c(C)c(C)c3ccccc32)n1	4%	12	19%	-42	1.4%	0.7	4%
O=C(c1cccc(C(=O)N(c2ccccn2)C2CCCCC2)c1)N(c1ccccn1)C1CCCCC1	-22%	-9	12%	2	/	0.4	14%
CCN(C(=O)c1coc(=O)c2ccccc12)c1cc(OC)ccc1OC	2%	-19	8%	-5	-0.1%	2.6	-3%
CCc1nn(CC(=O)NCCc2ccc(Cl)cc2)c(=O)c2cccn12	3%	-3	-26%	-22	-4.1%	/	-2%
COc1cc(/C=N/NC(=S)NCc2ccco2)cc(OC)c1OC	10%	5	25%	-2	-7.3%	7.7	12%
COc1ccc(CNC(=O)CSc2nc3cccnc3s2)cc1	-1%	11	?	-10	-0.1%	6.0	8%
COc1ccc(C)cc1NC(=O)CN1C(=O)COc2ccc(S(=O)(=O)N3CCCCC3)cc21	-6%	-1	28%	-7	1.2%	2.2	18%
CCOC(=O)c1c(N)sc(C(=O)N(C)C)c1CN1CCOCC1	7%	0	-36%	2	-2.5%	-1.8	12%
CCNC(=O)CC1SC(=Nc2ccccc2C)N(C)C1=O (stereo not given)	10%	-4	-24%	-4	-1.0%	-1.9	4%
O=C(Nc1ccccc1)c1snc2c(=O)[nH]cnc12	-6%	-4	21%[15.4 µM]	-3	/	3.9	9%
COc1ccccc1CNC(=O)C(C)n1nc(C)n2c(cc3occc32)c1=O (stereo not given)	11%	-8	63%	-7	-4.2%	/	31%[activator]
COc1ccc(N(C(=O)c2csnn2)C(C(=O)NC2CCCC2)c2ccccc2)cc1 (stereo not given)	/	20	2%[15.4 µM]	-27	/	-14	7%
CCOC(=O)/C(=C/c1ccc(OC)cc1)NC(=O)c1ccco1	-5%	11	-1%	-13	-1.2%	5.0	4%
O=C(O)CSC1CC(=O)N(c2ccc(F)cc2)C1=O (stereo not given)	/	/	13%	-17	-0.7%	/	/
COc1ccc(N2CC(C(=O)Nc3nnc(SCc4ccccn4)s3)CC2=O)cc1 (stereo not given)	-6%	14	1%[15.4 µM]	2	-2.0%	3.7	-14%
COc1ccccc1N1CCN(C(=O)C(OC(C)=O)c2ccccc2)CC1 (stereo not given)	5%	0	-6%	-4	0.5%	5.4	18%
COc1ccc2oc(C(=O)OCC(=O)N3CCCC3=O)c(C)c2c1	-2%	-7	-2%	-20	?	/	/
CCOC(=O)CSc1ccc(-c2nc3ccccc3[nH]2)cn1	?	-7	0%	26	32µM*	3.6	-5%
CCN(CC)C(=O)Oc1ccc2c(=O)c(-c3ccc(OC)cc3)coc2c1	-21%	1	-25%	1	-0.8%	-1.7	-26%
Cn1c(SCC(=O)N2c3ccccc3Sc3ccccc32)nc2ccccc21	?	-7	-39%[inhibitor]	4	-5.1%	4.1	23%
Cc1cccc(-c2noc(CCc3ccccc3)n2)c1	-4%	/	-13%	3	-1.1%	3.2	-16%
NC(=O)CC(NC(=O)c1cccc(Br)c1)c1ccc(NC2CCN(Cc3ccccc3)CC2)c([N+](=O)[O-])c1 (stereo not given)	-4%	10	/	-16	-1.8%	4.9	12%
Cc1cc(-c2ccccc2C(=O)NCc2ccccc2)on1	1%	8	-12%	-10	0.9%	-4.8	7%
COc1ccc(/C=C/C(=O)N(CC(C)C)CC(C)C)cc1Br	?	-5	?	-19	-2.6%	-0.1	4%
C=CCN(CC(=O)O)S(=O)(=O)c1ccccc1C(F)(F)F	19%	-4	3%[15.4 µM]	2	/	0.7	7%
Cc1ccc2[nH]c(=O)c(CN(Cc3cccs3)Cc3nnnn3CC3CCCO3)cc2c1 (stereo not given)	-13%	-21	-10%	-9	0.7%	1.0	4%
C[C@@H]1CCCCO[C@@H](CN(C)Cc2ccc(C(F)(F)F)cc2)[C@@H](C)CN([C@H](C)CO)C(=O)c2cc(N(C)C)ccc2O1	/	/	5%	-3	-3.3%	/	/
COc1ccc2c(c1)[C@H]1[C@H](CO2)[C@H](c2ccccc2)[C@]2(C)C(=O)N(Cc3ccc(C)cc3)CC(=O)N12	-24%	/	?	-3	-3.1%	/	/
CCN(CC)S(=O)(=O)c1cccc(C(=O)Nc2ccc(Cl)cn2)c1	?	16	?	-8	-2.9%	0.1	6%
O=C(NCCN1CCOCC1)C(=O)NCC1OCCN1S(=O)(=O)c1ccc(Br)cc1 (stereo not given)	0%	0	-12%	-14	1.3%	1.2	10%
CC1=NN(C(=O)c2cccnc2)C(O)(C(F)(F)F)C1 (stereo not given)	2%	-4	0%	0	/	3.4	22%
Cc1nnc(SCCn2c(N3CCC(C)CC3)nc3c2c(=O)n(C)c(=O)n3C)s1	-3%	/	12%	2	0.8%	/	/

2 entries from above in a different format.
Cn1c(SCC(=O)N2c3ccccc3Sc3ccccc32)nc2ccccc21
- gsp antagonist: ?
- TRPV1 potentiator: -7
- gsp ag: -39%[inhibitor]
- D2 potentiator: 4
- ClpP mod: -5.1%
- Menin MLL FP FL: 4.1
- Sfp PPTase inh: 23%

Cc1ccc2[nH]c(=O)c(CN(Cc3cccs3)Cc3nnnn3CC3CCCO3)cc2c1 (stereo not given)
- gsp antagonist: -13%
- TRPV1 potentiator: -21
- gsp ag: -10%
- D2 potentiator: -9
- ClpP mod: 0.7%
- Menin MLL FP FL: 1.0
- Sfp PPTase inh: 4%

Next part.
SMILES	gsp antagonist	TRPV1 potentiator	gsp ag	D2 potentiator	ClpP mod	Menin MLL FP FL	Sfp PPTase inh
Cc1cc(=O)oc2cc(NC(=O)C3COc4ccccc4O3)ccc12 (stereo not given)	26%	-3	37%	-11	-3.1%	2.9	-16%
CCCC(=O)NCc1cc(-c2nn(C)c(=O)c3ccccc23)ccc1OC	-2%	0	-1%[15.4 µM]	1	/	0.1	15%
Cc1ccc(C(=O)Nc2ccccc2C(=O)O)cc1NC(=O)COc1c(C)cccc1C	-1%	13	-31%[inhibitor]	12	-0.3%	2.1	-2%
CC(=O)Nc1ccc(-c2nnn(CC(=O)c3ccc(F)cc3)n2)cc1Cl	0%	6	?	-10	0.6%	-1.4	22%
Cc1ccc(C(=O)N2CCN3C(=O)c4ccccc4C23c2ccc(Cl)cc2)cc1 (stereo not given)	-9%	-4	-5%	-23	1.4%	-2.4	6%
C[C@H](CO)N1C[C@H](C)[C@@H](CN(C)Cc2ccncc2)Oc2c(NS(=O)(=O)c3cccs3)cccc2C1=O	3%	/	-6%	-3	0.2%	/	/
CC(C)N1CCc2c(sc(NC(=O)c3cc4cc([N+](=O)[O-])ccc4s3)c2C(N)=O)C1	-5%	10	-55%[inhibitor]	-10	-1.2%	?	?
Nc1c(NC(=O)CC[n+]2ccccc2)cccc1[N+](=O)[O-]	13%	23	-1%	1	11%	/	-9%
COc1ccc(NC(=O)C2CCCCN2S(=O)(=O)c2ccc(F)cc2)cc1 (stereo not given)	1%	27	-20%	-4	-4.9%	3.4	17%
O=C1N/C(=N\N=C\c2cccs2)SC1Cc1ccc(Cl)cc1 (stereo not given)	-10%	3	-11%	-14	-0.1%	0.3	7%
Cc1ccc(-n2ccc(=O)c(-c3ccnc(SCc4cccc(Cl)c4)n3)n2)cc1	-5%	13	10%	6	?	-1.2	-11%
C=CCCCCCCCCC(=O)NNC1CC(=O)N(c2ccccc2)C1=O (stereo not given)	2%	/	28%	-8	-1.7%	1.0	9%
Cc1cccc(Nc2ccc(C(=O)O)cc2[N+](=O)[O-])c1C	?	1	-5%[15.4 µM]	-12	-0.5%	2.4	-1%
Cc1cc(C(=O)COc2ccc(Cl)cc2Br)c(C)n1C	0%	-8	-8%[15.4 µM]	-6	/	-0.9	-2%
O=C(N/N=C/c1c(O)n(-c2ccccc2Cl)c(=O)c2ccccc12)C1COc2ccccc2O1 (stereo not given)	-2%	-7	6%[15.4 µM]	-10	-10%	?	30%[activator]
